ABCB1 block = ABCB1 efflux pump inhibitors, primary screen, cell-based, multiplex, flow cytometry, ABCG2 counter-screen; ATP-dependent translocase ABCB1 (Homo sapiens), P08183; CCRF-Adr cells, JC-1 efflux; inhibition, % at 6.6 µM; hit rate 0.067% among 190,000; AID 1326, 2008; in the data active = inhibition above about 40%;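 also: 0% = vehicle and 100% = reference inhibitor; higher value means more JC-1 retained so stronger ABCB1 efflux block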
ABCG2 block = ABCG2 efflux pump inhibitors, primary screen, multiplex with ABCB1, IgMXP3 cells, flow cytometry. hit rate 0.1% among 190,000. JC-1 efflux. inhibition, % at 6.6 µM. Broad substrate specificity ATP-binding cassette transporter ABCG2 (Homo sapiens), Q9UNQ0;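 active = inhibition above 80%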;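 also: 0% = DMSO and 100% = nicardipine control wells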
Target sequence (Q9UNQ0 whole entry, looked up): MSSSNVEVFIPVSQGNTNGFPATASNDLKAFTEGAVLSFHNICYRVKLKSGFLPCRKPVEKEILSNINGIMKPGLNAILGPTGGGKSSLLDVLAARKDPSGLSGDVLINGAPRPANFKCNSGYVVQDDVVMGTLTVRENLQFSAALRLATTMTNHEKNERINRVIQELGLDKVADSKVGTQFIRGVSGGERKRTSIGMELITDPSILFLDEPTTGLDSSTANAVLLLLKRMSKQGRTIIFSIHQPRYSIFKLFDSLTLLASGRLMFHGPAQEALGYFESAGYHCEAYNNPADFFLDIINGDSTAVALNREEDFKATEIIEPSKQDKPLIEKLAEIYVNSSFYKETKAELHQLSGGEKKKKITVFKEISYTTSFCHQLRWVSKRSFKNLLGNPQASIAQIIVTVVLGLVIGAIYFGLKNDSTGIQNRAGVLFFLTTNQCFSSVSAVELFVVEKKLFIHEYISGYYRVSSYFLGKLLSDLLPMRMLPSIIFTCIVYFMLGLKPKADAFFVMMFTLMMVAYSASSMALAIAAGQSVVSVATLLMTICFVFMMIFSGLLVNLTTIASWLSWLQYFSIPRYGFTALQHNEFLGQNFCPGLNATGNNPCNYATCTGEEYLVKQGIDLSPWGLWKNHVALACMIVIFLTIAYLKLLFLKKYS
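material = IgMXP3 (ABCG2) plus far-red-tagged CCRF-Adr (ABCB1) cells | amount = 3 million cells/mL, equal mix of both lines | also added = JC-1 transporter substrate | dosing = one concentration, 6.6 µM final | schedule = 10 min at 25 °C | measured by = flow cytometric JC-1 green MFI at 530 nm | read-out basis = percent efflux inhibition, scaled nicardipine 100% to DMSO 0%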
RGS7-Gao = RGS7-Galphao binding modulators, primary screen, biochemical, multiplexed bead flow cytometry; actives lie on both sides; binding response (% of control), % at 10 µM; hit rate 0.35% among 220,000; AID 1439, 2008; in the data active = binding response below about 49% or above about 150%; inconclusive = no clear call, values can overlap the other calls; inactive = in between;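 also: fluorescent Galphao held in activated GDP-AlF4 state binding bead-coupled RGS7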
Target sequence (P09471 whole entry, looked up): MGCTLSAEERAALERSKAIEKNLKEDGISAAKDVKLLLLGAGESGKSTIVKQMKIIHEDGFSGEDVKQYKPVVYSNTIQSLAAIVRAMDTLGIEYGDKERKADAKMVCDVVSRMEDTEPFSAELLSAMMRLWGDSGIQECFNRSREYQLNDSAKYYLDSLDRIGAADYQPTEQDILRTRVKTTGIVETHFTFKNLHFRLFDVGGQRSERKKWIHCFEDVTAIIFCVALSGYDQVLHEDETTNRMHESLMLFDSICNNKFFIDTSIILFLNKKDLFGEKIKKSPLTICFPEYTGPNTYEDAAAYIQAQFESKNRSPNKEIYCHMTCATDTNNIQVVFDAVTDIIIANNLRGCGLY
RGS4-Gao reg = modulators of RGS4 binding to Galphao, primary screen, biochemical, multiplexed bead flow cytometry | actives lie on both sides | Guanine nucleotide-binding protein G(o) subunit alpha (Homo sapiens), P09471 | hit rate 0.33% among 220,000 | binding response (% of control), % at 10 µM; in the data active = binding response below about 49% or above about 150%; inactive = in between;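 also: fluorescent Galphao activated with aluminum fluoride binding bead-coupled RGS4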
RGS8-Gao reg = RGS8-Galphao binding modulators, primary screen, biochemical, multiplexed bead flow cytometry. hit rate 0.34% among 220,000. response (percent of control binding), % at 10 µM. Guanine nucleotide-binding protein G(o) subunit alpha (Homo sapiens), P09471. AID 1423, 2008. actives lie on both sides; in the data active = response below about 60% or above about 140%; inactive = in between;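 also: Galphao activated as the GDP aluminium fluoride complex binding bead-coupled RGS8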
Active calls of the source: *; ? = inconclusive; · = not tested or not shown.

Short keys: A = ABCB1 block; B = ABCG2 block; C = RGS7-Gao; D = RGS4-Gao reg; E = RGS8-Gao reg
C=CCn1c(CCNC(=O)c2ccccc2F)nnc1SCc1nc2ccccc2c(=O)[nH]1
  A: -0.8	B: 20	C: 100	D: 100	E: 98
COc1ccc(-c2cc(C(F)(F)F)c3c(n2)sc2c(O)cc(=O)[nH]c23)c(OC)c1
  A: -0.1	B: -2	C: 96	D: 95	E: 98
Cc1ccc(OCc2nnc(SCC(=O)Nc3cc(C)on3)n2C)cc1
  A: 1.3	B: 29	C: 98	D: 99	E: 98
Cn1c(NCCCN2CCOCC2)nc2c1c(=O)n(Cc1ccc(Cl)c(Cl)c1)c(=O)n2C
  A: 4.8	B: 5	C: 98	D: 98	E: 102
COc1ccc(OC)c(-n2c(O)cnc2Nc2nc(C)cc(C)n2)c1
  A: 0.5	B: 3	C: 99	D: 99	E: 99
CN(C)c1ccnc2sc(C(N)=O)c(N)c12
  A: -0.1	B: 1	C: 93	D: 96	E: 97
O=C(/C=C/NNC(=O)c1ccccc1)c1ccc([N+](=O)[O-])cc1
  A: -0.9	B: -4	C: 98	D: 100	E: 103
Cc1nn(C)c(C)c1NC(=O)CSc1nc(-c2ccccc2Cl)nc2c1cnn2-c1ccccc1
  A: 1.3	B: 5	C: 90	D: 90	E: 95
CCCCOc1ccccc1-c1cc(C(=O)O)[nH]n1
  A: 0.1	B: 0	C: 94	D: 101	E: 95
Cc1ccc(N2C(=O)CN=C2Nc2nc(C)cc(C)n2)cc1
  A: ·	B: ·	C: ?	D: 98	E: 100
COC(=O)c1ccc2c(=O)[nH]c(CCl)nc2c1
  A: -0.1	B: 0	C: 100	D: 105	E: 103
CCOC(=O)c1cc(C#N)c(Oc2ccccc2OC)nc1-c1ccccc1
  A: 0.7	B: 2	C: 95	D: 98	E: 100
COC(=O)Oc1ccc(/C=N/NC(=O)CSCc2ccccc2Br)cc1OC
  A: 0.7	B: 6	C: 105	D: 105	E: 102
COc1ccc(/C=N/Nc2nc(-c3ccc(Cl)cc3)cc(C(F)(F)F)n2)cc1OC
  A: 0.5	B: 2	C: 104	D: 101	E: 104
Cc1nn(-c2ccccc2)c2[nH]c(=O)c(CNCCN3CCOCC3)cc12
  A: 0.4	B: 3	C: 104	D: 103	E: 104

A draw from above in order of SMILES length, rising:
Short keys: A = ABCB1 block; B = ABCG2 block; C = RGS7-Gao; D = RGS4-Gao reg; E = RGS8-Gao reg
CN(C)c1ccnc2sc(C(N)=O)c(N)c12
  A: -0.1	B: 1	C: 93	D: 96	E: 97
CCCCOc1ccccc1-c1cc(C(=O)O)[nH]n1
  A: 0.1	B: 0	C: 94	D: 101	E: 95
COc1ccc(OC)c(-n2c(O)cnc2Nc2nc(C)cc(C)n2)c1
  A: 0.5	B: 3	C: 99	D: 99	E: 99
COc1ccc(/C=N/Nc2nc(-c3ccc(Cl)cc3)cc(C(F)(F)F)n2)cc1OC
  A: 0.5	B: 2	C: 104	D: 101	E: 104
Cn1c(NCCCN2CCOCC2)nc2c1c(=O)n(Cc1ccc(Cl)c(Cl)c1)c(=O)n2C
  A: 4.8	B: 5	C: 98	D: 98	E: 102
COc1ccc(-c2cc(C(F)(F)F)c3c(n2)sc2c(O)cc(=O)[nH]c23)c(OC)c1
  A: -0.1	B: -2	C: 96	D: 95	E: 98

Other compounds follow:
Short keys: A = ABCB1 block; B = ABCG2 block; C = RGS7-Gao; D = RGS4-Gao reg; E = RGS8-Gao reg
Cc1ccc(Nc2nc(N)nc(CSc3nncn3C)n2)cc1
  A: 0.4	B: -2	C: 98	D: 102	E: 104
COc1ccccc1CCNC(=O)c1cnn2c(C(F)F)cc(C)nc12
  A: -3.2	B: -4	C: 99	D: 100	E: 101
CCOC(=O)Nc1cccc(Nc2ccccc2)c1
  A: 0.1	B: 3	C: 93	D: 93	E: 99
Cc1cc(C)c(S(=O)(=O)Nc2cccc(/C=C/C(=O)O)c2)c(C)c1
  A: -0.1	B: 3	C: 102	D: 106	E: 104
COc1ccc(OCCNC(=O)CSc2ccc(C(F)(F)F)cc2[N+](=O)[O-])cc1
  A: 1.3	B: 3	C: 102	D: 99	E: 86
Nc1cc(C(F)(F)F)ccc1-n1cccc1
  A: 2.3	B: 4	C: 97	D: 99	E: 99
Nc1nc(/C=C/c2cccnc2)nc(-c2ccccc2O)n1
  A: 1.0	B: 8	C: 102	D: 103	E: 103
CC(C)[C@H](Nc1ccc(S(=O)(=O)N2CCOCC2)cc1[N+](=O)[O-])C(=O)OCC(=O)N(C(C)C)C(C)C
  A: 8.8	B: 8	C: 98	D: 99	E: 102
CC(=O)N1CCN(Cc2nc3cc(Cl)ccc3c(=O)[nH]2)CC1
  A: -0.1	B: 0	C: 100	D: 100	E: 101
CCC(=O)NS(=O)(=O)c1cccnc1Nc1ccccc1Cl
  A: 0.7	B: 3	C: 117	D: 116	E: 138
CCCCn1nnnc1NCc1cc(Cl)c(OC)c(OC)c1
  A: 2.0	B: 17	C: 101	D: 98	E: 100
Cc1ccc(/C=C2/NC(=O)N(c3ccccc3)C2=O)o1
  A: 1.3	B: 9	C: 100	D: 102	E: 100
Cn1c(SCC(=O)c2ccc3c(c2)Cc2ccccc2-3)nnc1-c1ccccc1
  A: 0.8	B: 3	C: 102	D: 104	E: 100
O=C(Nc1cccc(-c2nc3ccccc3s2)c1)c1cc(=O)c2ccccc2o1
  A: 0.2	B: 0	C: 98	D: 98	E: 100
CCc1cc2c(N[C@@H](Cc3c[nH]c4ccccc34)C(=O)O)ncnc2s1
  A: -0.4	B: -3	C: 97	D: 108	E: 103
COC(=O)c1ccc(N2CCC(C)CC2)c(N)c1
  A: 0.3	B: 4	C: 98	D: 102	E: 102
Cn1c(=NC(=O)CSCC(=O)N2CCOCC2)sc2ccccc21
  A: 0.9	B: 5	C: 102	D: 104	E: 101
O=C(O)c1cc(-c2ccccc2Cl)n[nH]1
  A: 0.0	B: -1	C: 100	D: 98	E: 99
Fc1cccc(Cl)c1CSc1ncn[nH]1
  A: 0.0	B: -1	C: 98	D: 100	E: 103
C#CCNc1nc(CC)nc2c1nnn2Cc1ccccc1F
  A: -1.4	B: 0	C: 112	D: 114	E: 108
Cc1ccccc1OCCNC(=O)CSc1ccc(C(F)(F)F)cc1[N+](=O)[O-]
  A: 0.5	B: 3	C: 103	D: 102	E: 102
O=S(=O)(Cc1ccccc1)N1CCn2c(nc3ccccc32)C1
  A: -0.7	B: 0	C: 98	D: 96	E: 98
COCCn1c(=NC(=O)CSCC(=O)NC2CCCCC2)sc2cc(OC)ccc21
  A: 2.4	B: 38	C: 102	D: 102	E: 101
CC(C(=O)NC(C)(C)C)N(Cc1cccs1)C(=O)CCN1CCc2ccccc21 (stereo not given)
  A: 3.1	B: 5	C: 102	D: 99	E: 99
CSc1cccc(NC(=O)CN(c2ccc(C)cc2C)S(C)(=O)=O)c1
  A: 0.7	B: 5	C: 104	D: 107	E: 101
COc1ccc(NC(=O)c2cccnc2Nc2ccccc2)cc1
  A: 0.3	B: 3	C: 99	D: 98	E: 101
Nc1c(C(=O)Nc2ccc(Br)cc2)sc2nc(-c3ccco3)ccc12
  A: 0.2	B: 0	C: 84	D: 91	E: 85
C=CCN1C(=O)C(CC(=O)Nc2ccc(OC)cc2)N(Cc2ccco2)C1=S (stereo not given)
  A: 1.3	B: 8	C: 98	D: 93	E: 96
O=C1OC(c2ccc(Br)cc2)=N/C1=C\c1ccco1
  A: 0.0	B: -1	C: 103	D: 100	E: 104
Cc1cc(C(F)F)n2ncc(C(=O)N3CCCCC3)c2n1
  A: 2.6	B: 10	C: 105	D: 102	E: 101
COc1ccc(/C=C(/Sc2nnc(-c3ccc(Cl)cc3)o2)C(=O)O)cc1
  A: 0.6	B: 1	C: ?	D: 99	E: 99
Cc1sc(NC(=O)C2CC(Cl)=CCC2C(=O)O)c(C#N)c1C (stereo not given)
  A: 0.4	B: 0	C: 96	D: 98	E: 97
COC(=O)NNC(=O)c1ccc(C)cc1
  A: -0.3	B: -2	C: 101	D: 100	E: 109
Cc1ccc(NC2=C(Cl)C(=O)OC2OC(C)C)cc1 (stereo not given)
  A: 0.1	B: 2	C: 97	D: 97	E: 99
COc1ccc2[nH]c3nc(SCc4nnc(-c5ccccc5)o4)nnc3c2c1
  A: 0.5	B: 3	C: 95	D: 96	E: 102
COc1cccc(OCCc2c(C)n[nH]c2C)c1
  A: 0.9	B: 8	C: 105	D: 104	E: 104
O=C(Nc1ccc(Cl)cc1)Nc1nnc(-c2ccncc2)s1
  A: 0.2	B: 4	C: 99	D: 98	E: 99
CC(C)n1cc(/C=N/NC(=O)COc2cccc3cccnc23)c2ccccc21
  A: -0.9	B: -8	C: 99	D: 101	E: 99
Cn1c(OCc2ccc3c(c2)OCO3)nc2c1c(=O)n(Cc1ccc(Cl)c(Cl)c1)c(=O)n2C
  A: -1.6	B: -14	C: 116	D: 105	E: 96
CC(Cc1ccccc1)C(=O)N1CCN(C)CC1 (stereo not given)
  A: -0.6	B: -4	C: 106	D: 103	E: 101
CCc1cc(C(c2cccc(OC)c2)N2CCOCC2)c(NC(=O)c2ccccc2)s1 (stereo not given)
  A: 0.4	B: 4	C: 101	D: 110	E: 100
COc1ccc(F)cc1C(=O)C1CCCN(Cc2c[nH]c3ccccc23)C1 (stereo not given)
  A: 0.7	B: 2	C: 105	D: 103	E: 107
COc1ccc(NC(C)=O)cc1NC(C)C(=O)Nc1ccccc1F (stereo not given)
  A: 0.5	B: 1	C: 87	D: 88	E: 82
Cc1cc(C(F)F)n2ncc(C(=O)NCc3ccccc3)c2n1
  A: -0.1	B: 0	C: 99	D: 102	E: 99
C=CC[C@@H]1Cc2c(Br)ccc(Br)c2[C@@H](CC=C)N1
  A: 0.3	B: 0	C: 99	D: 96	E: 83
Cc1nc(-c2ccccn2)sc1C(=O)Nc1ccc(F)cc1
  A: 0.1	B: 1	C: 99	D: 102	E: 99
CCOc1ccc2nc(Nc3nc4ccc(NC(C)=O)cc4s3)sc2c1
  A: -1.4	B: -12	C: 102	D: 105	E: 103
CCOC(=O)c1sc(Nc2nc3c(F)cccc3s2)cc1C
  A: -0.7	B: 4	C: 87	D: 87	E: 78
COc1ccc(NC(C)=O)cc1NC(C)C(=O)Nc1ccc(F)cc1 (stereo not given)
  A: 0.0	B: 1	C: 102	D: 101	E: 101
COCC(=O)Nc1cc(C(=O)Nc2ccccc2C)ccc1Cl
  A: 0.8	B: 3	C: 100	D: 102	E: 100
COC(=O)C1=NN(c2cccc(C)c2)C2C(=O)N(c3ccccc3OC)C(=O)C12 (stereo not given)
  A: 0.1	B: 0	C: 99	D: 101	E: 102
CC1C/C(=N\NC(=S)NCc2ccccc2)CC(C)(C)C1 (stereo not given)
  A: 0.2	B: 1	C: 101	D: 107	E: 102
Cn1c(NCC(O)CO)nc2c1c(=O)n(Cc1ccc(Cl)c(Cl)c1)c(=O)n2C (stereo not given)
  A: 0.2	B: 0	C: 105	D: 100	E: 101
CC(C)COc1ccc(-c2nnc(-c3ccncc3)o2)cc1
  A: 0.1	B: 1	C: 104	D: 98	E: 102
Cc1nc(-c2cccnc2)sc1C(=O)Nc1ccc(F)cc1F
  A: 0.2	B: 4	C: 101	D: 104	E: 105
C/C(=N\NC(=O)c1cccnc1)c1c(O)cc(C)oc1=O
  A: 0.6	B: 7	C: 97	D: 101	E: 103
C/C(=N\NC(=O)c1ccccc1O)c1c(O)cc(C)oc1=O
  A: -0.4	B: -3	C: 95	D: 91	E: 107
CCCc1nc(-c2cc3ccc(C)cc3[nH]c2=O)no1
  A: -0.2	B: 0	C: 100	D: 99	E: 100
COc1ccc(C(C#N)Nc2ccccc2)cc1 (stereo not given)
  A: -2.3	B: -8	C: 96	D: 94	E: 99
Cc1sc2nc(CN3CCCC3)nc(N3CCN(C(=O)c4ccco4)CC3)c2c1C
  A: -0.1	B: 14	C: ?	D: 100	E: 99
Cc1cccc(OCCNC(=O)CSc2ccc(C(F)(F)F)cc2[N+](=O)[O-])c1
  A: -0.1	B: 0	C: 99	D: 101	E: 99

Exported field by field: part of the list above.
SMILES: Cn1c(NCC(O)CO)nc2c1c(=O)n(Cc1ccc(Cl)c(Cl)c1)c(=O)n2C (stereo not given)
  ABCB1 block: 0.2
  ABCG2 block: 0
  RGS7-Gao: 105
  RGS4-Gao reg: 100
  RGS8-Gao reg: 101
SMILES: C/C(=N\NC(=O)c1cccnc1)c1c(O)cc(C)oc1=O
  ABCB1 block: 0.6
  ABCG2 block: 7
  RGS7-Gao: 97
  RGS4-Gao reg: 101
  RGS8-Gao reg: 103

An excerpt. The share of hits here may be higher or lower than overall.
